Compound activity: PubChem, National Center for Advancing Translational Sciences (NCATS)
VDR inh: Inhibitors of the vitamin D receptor (VDR): qHTS. Vitamin D3 receptor (Homo sapiens), P11473. 0.93% of 400,000 active. VDR-SRC2-3 peptide fluorescence polarization, 2 h. AID 504847, 2011. Potency, µM, for inactives: max response, negative = inhibition, most hits filed as inhibitors; active = well fitted inhibition curve with a large enough effect; inconclusive = small, poorly fitted or top-dose-only effect, or another doubt; inactive = no such curve, though single readings can be large or run the other way; also: series mostly up to about 120 µM
Target sequence (P11473 whole entry, looked up): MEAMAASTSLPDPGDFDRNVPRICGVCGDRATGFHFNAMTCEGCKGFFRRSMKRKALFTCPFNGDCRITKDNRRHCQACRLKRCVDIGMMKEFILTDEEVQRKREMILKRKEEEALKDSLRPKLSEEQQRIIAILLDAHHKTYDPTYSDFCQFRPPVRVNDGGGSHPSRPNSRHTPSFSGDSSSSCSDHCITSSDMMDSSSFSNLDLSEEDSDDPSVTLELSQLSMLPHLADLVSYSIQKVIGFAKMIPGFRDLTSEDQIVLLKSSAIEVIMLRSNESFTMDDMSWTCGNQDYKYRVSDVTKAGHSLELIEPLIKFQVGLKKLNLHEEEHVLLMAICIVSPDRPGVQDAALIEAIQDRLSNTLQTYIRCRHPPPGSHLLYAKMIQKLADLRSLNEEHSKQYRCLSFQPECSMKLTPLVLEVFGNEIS
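Signal is fluorescence polarization, reporting how far test compounds block the interaction of VDR with the SRC2-3 coregulator peptide after a 2 h room-temperature incubation.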
* hit, by the source's call; ? = inconclusive; & = joins results of further samples. % is scaled to controls: 0 for no effect and ±100 for the full control effect; potency is read from the fitted curve at half-maximal effect.

compound	VDR inh
Cc1cc(=O)n2[nH]c(-c3ccccc3Cl)cc2n1	-19%
O=C(COC(=O)[C@@H]1CC(O)CN1S(=O)(=O)c1ccc2c(c1)OCCO2)Nc1ccccc1F (some centres undefined)	6%
CC(C)c1nc2sc3c(=O)[nH]cnc3c2c2c1CCC2	-16%
CCOC(=O)/C=C1\CN(Cc2cc(OC)c(OC)c(OC)c2)S(=O)(=O)c2ccc(C(F)(F)F)cc21	-5%
Cc1cc2nnc(SC3CCCCN(C(=O)c4ccc(F)cc4)C3=O)n2c2ccccc12 (centres undefined)	10%
CS(=O)(=O)N(CC(=O)NCC1CCCO1)c1cc(Cl)c(Cl)cc1Cl (centres undefined)	-5%
Cc1ccc(NC(=O)CCNS(=O)(=O)c2cccc3nonc23)cc1Cl	2%&-4%
Cc1cc(C)nc(SCC(=O)OCC(=O)Nc2nc3ccccc3s2)n1	-11%
Nc1ccc(Cl)c(NC(=O)c2cccs2)c1	19%
Fc1ccccc1CSc1ncnc2sc3c(c12)CCCC3	-13%
COc1cc(OC)cc(-c2nc3nc(C)c(CCC(=O)Nc4cc(C)cc(C)c4)c(C)n3n2)c1	-7%
COc1ccc(N2CC(NC(=O)N3CCN(c4ccccc4)CC3)CC2=O)cc1 (centres undefined)	4%
CCOc1ccc(-c2nnc(N)s2)cc1	2%
COc1ccc(CNc2nc(-c3ccccc3)nn2C(=O)c2ccccc2OC)cc1	-4%
CC(C)(C)c1ccc(-n2ncc3c2CCCC3NC(=O)c2ccncc2)cc1 (centres undefined)	-6%
Cc1oc2ncn(CC(C)C)c(=O)c2c1C(=O)N1CCN(c2ccccc2F)CC1	20%
Nn1c(SCc2cccc(Br)c2)nnc1-c1cccnc1	1%
O=C1C=C(c2ccc(-c3ccccc3)cc2)C[C@@H](c2ccc(F)cc2)C1	?
O=C(Cn1c(=O)oc2ccccc21)NC(=O)NCc1ccco1	-14%
O=C(CSCc1ccc([N+](=O)[O-])cc1)NC1CC1	10%
CCCOc1ncnc2c1[nH]c1ccc(C)cc12	8%
O=C(Nc1cccc(O)c1)c1ccc(NC(=O)c2cccs2)cc1	-18%
Cc1c[n+]([O-])ccc1[N+](=O)[O-]	-14%
COc1ccc([C@H]2CC(=O)C=C(c3ccc4cc[nH]c4c3)C2)cc1	-10%
CCOC(=O)c1sc(NC(=O)C2CC(=O)N(c3ccc(OCC)cc3)C2)nc1C (centres undefined)	-3%
C[N+]1(CCn2ccc3ccccc32)CCCCC1	-2%
COc1cccc(NC(=O)Cn2c(=O)n(CC(=O)NCCc3ccccc3)c(=O)c3sccc32)c1	-6%
CCOC(=O)c1ccc(N2C(=O)C(O)=C(C(C)=O)C2c2ccccn2)cc1 (centres undefined)	5%
CCOc1ccc(N2C(=O)C3C(c4ccccc4F)NN(C(=O)c4ccc(C)cc4)C3C2=O)cc1 (centres undefined)	2%
COc1ccc(NC(=O)CN2C(=O)COc3ccc(S(=O)(=O)N4CCOCC4)cc32)cc1Cl	-6%&6%
CCOC(=O)c1ccc(C#Cc2ccc3c(c2)C(C)(C)CCS3)nc1	-18%
COC/C=C/C1=CC2=CC(=O)C(C)(OC(=O)c3cnc4ccccc4n3)C(=O)C2=CN1C(CO)CO (centres undefined)	9%
O=c1[nH]c2ccccc2cc1CN(Cc1cccnc1)S(=O)(=O)c1ccc([N+](=O)[O-])cc1	-9%
CC(C)(Cc1ccc(O)cc1)NC(=O)SCc1ccccc1	-5%
Cc1cccc(C(=O)NCC(=O)Nc2ccncc2)c1	-16%
Cc1ccc2nc(N3CCN(c4cccc(Cl)c4)CC3)c(-n3nc(C)cc3C)nc2c1	2%
CNc1nc(-c2ccccc2C(F)(F)F)nc2ccccc12	0%
Cc1occc1C(=O)NNC1=CC(=O)CC(C)(C)C1	3%
CC1=C(C(=O)OCc2ccccc2)C(c2ccccc2OC(F)F)NC(=O)N1 (centres undefined)	-1%
CCOC(=O)c1c(CN2CCC(C)CC2)oc2ccc(OC)cc12	-3%
COc1ccc(-n2c3nc4ccccc4nc3c3c(=N)oc(C)nc32)cc1	?
CC(=O)Nc1cccc(OCC(=O)NC(C)C(C)C)c1 (centres undefined)	1%
COc1ccc(NC(=O)N(C(C)C)C2CCN(C(C)=O)CC2)c(OC)c1	13%
Cc1ccc(C)c(C(=O)NCCN(C)C)c1	5%
COc1ccc2c(c1)OCC(Cc1ccc(O)c(OC)c1)C2=O (centres undefined)	0%
COc1cc(NC(=O)CCc2nc3cccnc3n2Cc2cccs2)cc(OC)c1OC	-19%
CC(=O)N1CCC(CCCC2CCN(C(C)=O)CC2)CC1	-1%
Cc1ccc(Cn2c(=N)c(C(=O)NC3CCCCC3)cc3c(=O)n4ccccc4nc32)cc1	27%
N#CCCN(C(=O)COC(=O)c1n[nH]c2ccccc12)c1ccccc1	7%
COc1ccc(CNC(C)CCc2ccccc2)cc1 (centres undefined)	-20%
Cc1cc(C(=O)NCCCC(=O)O)c(C)o1	13%
CC1CCN(S(=O)(=O)c2ccc3[nH]c(=O)ccc3c2)CC1	5%
COc1cc(/C=N/NC(=O)C(NC(=O)c2ccccc2)c2n[nH]c(=O)c3ccccc23)ccc1OCC(N)=O (centres undefined)	1%
CC1(c2ccc(OC(F)F)cc2)NC(=O)N(CC(=O)Nc2ccc(S(N)(=O)=O)cc2)C1=O (centres undefined)	-14%
CC(=O)Nc1ccc(NC(=O)C(=O)c2cn(CC(=O)N3CCCC3)c3ccccc23)cc1	2%
Cc1cccc2cc(-c3nc(-c4cccs4)no3)c(=O)oc12	6%

(next part)
compound	VDR inh
CC(=O)c1ccc(OC(=O)Oc2ccc(C(C)=O)cc2)cc1	-3%
CCCCN(C)CCNC(=O)c1cc(-c2ccc(Cl)s2)nc2ccccc12	-4%
CCN(C(=O)CN1C(=O)NC(c2ccccc2)(c2ccc(C)c(C)c2)C1=O)C1CCS(=O)(=O)C1 (centres undefined)	5%
Cc1ccc(CNc2oc(COc3ccccc3Cl)nc2C#N)cc1	11%
Cc1nnsc1C(=O)NNS(=O)(=O)c1cc(C(F)(F)F)cc(C(F)(F)F)c1	-24%
Cc1nc(C)c(CCNC(=O)c2ccccc2Br)s1	-4%
CNC(=O)COC(=O)COc1ccc2c(C)cc(=O)oc2c1	11%
COC(=O)c1ccccc1NC(=O)CN(c1ccc(C)cc1)S(C)(=O)=O	-12%

Entries shown so far that have a furan ring, fused or not, in the order listed:
compound	VDR inh
Cc1oc2ncn(CC(C)C)c(=O)c2c1C(=O)N1CCN(c2ccccc2F)CC1	20%
O=C(Cn1c(=O)oc2ccccc21)NC(=O)NCc1ccco1	-14%
Cc1occc1C(=O)NNC1=CC(=O)CC(C)(C)C1	3%
CCOC(=O)c1c(CN2CCC(C)CC2)oc2ccc(OC)cc12	-3%
Cc1cc(C(=O)NCCCC(=O)O)c(C)o1	13%

Reprinted at random: 2 entries already listed.
compound	VDR inh
CCCCN(C)CCNC(=O)c1cc(-c2ccc(Cl)s2)nc2ccccc12	-4%
CNC(=O)COC(=O)COc1ccc2c(C)cc(=O)oc2c1	11%

Sorted by formula weight (lowest first): 5 of the compounds above.
compound	VDR inh
CCCOc1ncnc2c1[nH]c1ccc(C)cc12	8%
Cc1cccc2cc(-c3nc(-c4cccs4)no3)c(=O)oc12	6%
COc1ccc([C@H]2CC(=O)C=C(c3ccc4cc[nH]c4c3)C2)cc1	-10%
COc1cc(NC(=O)CCc2nc3cccnc3n2Cc2cccs2)cc(OC)c1OC	-19%
COc1cc(OC)cc(-c2nc3nc(C)c(CCC(=O)Nc4cc(C)cc(C)c4)c(C)n3n2)c1	-7%

Other compounds:
compound	VDR inh
COc1ccc(S(=O)(=O)Nc2cc(C(=O)NCCCN3CCOCC3)ccc2N2CCOCC2)cc1	-3%
CCn1c(SCC(=O)Nc2nnc(C)s2)nnc1C(C)NC(=O)c1ccccc1F (centres undefined)	-16%
COc1ccc(S(=O)(=O)NC(Cc2cnc[nH]2)C(=O)O)cc1 (centres undefined)	-16%
COc1ccc(NC(=O)N2CCCC3(CCN(C(=O)c4c(C)noc4C)CC3)C2)cc1	3%
CCN(Cc1ccc(NC(C)=O)cc1)CC1CCCN(CCc2cccc(OC)c2)C1 (centres undefined)	-10%
COC(=O)c1cc2c(N)c(C(=O)c3ccc(Cl)cc3)sc2nc1C(OC)OC	19%
O=C1c2ccccc2NC(c2ccccc2O)N1NS(=O)(=O)c1ccccc1 (centres undefined)	5%
O=C(c1cc2c(=O)oc3ccccc3c2s1)N1CCN(c2ccccc2)CC1	-1%
CC(C)(C)[C@@H]1C=C(C(=O)O)O[C@H](OCc2ccc(CO)cc2)C1	-23%
COc1ccc(N2CCN(c3cnc4ccccc4n3)CC2)cc1	12%
COc1ccc(NC(C)=O)cc1NC(=O)CSc1nnc(-c2ccc(F)cc2)n1N	15%
Cc1ccc(C(=O)Nc2nc(C)c(C)s2)o1	-9%
COC(=O)C(Cc1ccccc1)NC(=O)COc1ccc(C(C)(C)C)cc1 (centres undefined)	-3%
Cc1ccc(C)c(S(=O)(=O)N2CCN(CC(=O)NC(=O)NCc3ccco3)CC2)c1	-9%
CCOC(=O)c1c(NC2=NS(=O)(=O)c3ccccc32)sc2c1CCCCC2	-16%
Cc1ccsc1C(=O)OC1CCOC1=O (centres undefined)	8%
CC(=O)NC(CC(=O)N(C)Cc1c(F)cccc1Cl)c1ccccc1 (centres undefined)	20%
CCC(=O)NC(c1cccs1)c1cc(Cl)c2ccccc2c1O (centres undefined)	-8%
CC[C@@H]1C=C(C(=O)O)[C@H](c2ccc(C#N)cc2)N1S(=O)(=O)c1ccc(C)cc1	-21%
CCOc1ccccc1C(=O)NC1CC2CCCC(C1)N2Cc1nnnn1Cc1ccco1 (centres undefined)	-10%
O=C(c1ccc(Br)c(S(=O)(=O)N2CCOCC2)c1)N1CCN(C/C=C/c2ccccc2)CC1	-26%
COC(=O)C(CC(C)C)NC(=O)CSc1nc(-c2ccccc2)c(C#N)c(=O)[nH]1 (centres undefined)	-2%
COc1ccccc1C(=O)N1CCN(CCc2ccccc2)CC1	19%
COc1ccc(C(=O)N2CC3(CC(c4cccc(NC(=O)CC(c5ccccc5)c5ccccc5)c4)=NO3)C[C@H]2C(N)=O)cc1 (some centres undefined)	13%
CC(=O)C1N=NCC1c1ccccc1 (centres undefined)	-12%
O=C(CSCc1ccccc1)Nc1cccc(C(=O)Nc2ccccc2C(=O)O)c1	-6%
CCOC(=O)c1c(C)nsc1NCc1ccccc1	?
Nc1cc(-c2ccccc2)nn1Cc1ccc(Cl)cc1	8%
Cn1cc(-c2cccc(Cl)c2)cc(C#N)c1=O	4%
O=S(=O)(c1ccc(N2CCCCCC2)nc1)N1CCCC1	2%
Cc1ccc(N=C2NC(=O)c3cccc([N+](=O)[O-])c32)cc1	-24%
CCOC(=O)C1=C(CS(=O)(=O)c2ccc(Cl)cc2)NC(=O)NC1c1ccc(O)c(OC)c1 (centres undefined)	-3%
C[C@H](CO)N1C[C@H](C)[C@@H](CN(C)S(C)(=O)=O)Oc2c(NC(=O)Nc3ccccc3)cccc2C1=O	1%
CCc1cc2c(NC(Cc3c[nH]c4ccccc34)C(=O)O)nc(C)nc2s1 (centres undefined)	-6%
CCc1[nH]nc2c1C(C1C=CCCC1)C(C#N)=C(N)O2 (centres undefined)	-11%
Cc1ccc(S(=O)(=O)N2CCCC(c3nnc4n3-c3ccccc3SC4)C2)cc1 (centres undefined)	3%
COc1ccc2c(c1OC)c(=O)n1c3ccc(OC(C)C(=O)NCCN4CCOCC4)cc3c3ccnc2c31 (centres undefined)	-10%
O=C(c1cncc(Br)c1)N1CCN(c2ccc([N+](=O)[O-])cc2)CC1	?
O=C(Cn1cc(S(=O)(=O)N2CCN(c3ccccc3F)CC2)c2ccccc2c1=O)Nc1ccc(F)cc1Cl	-17%
CC(=O)Nc1ccc(S(=O)(=O)Nc2ccc(N3CCOCC3)c(F)c2)cc1	-12%

Shown with the structure last: entries from further up
| VDR inh | compound |
| --- | --- |
| -17% | O=C(Cn1cc(S(=O)(=O)N2CCN(c3ccccc3F)CC2)c2ccccc2c1=O)Nc1ccc(F)cc1Cl |
| -10% | COc1ccc2c(c1OC)c(=O)n1c3ccc(OC(C)C(=O)NCCN4CCOCC4)cc3c3ccnc2c31 (centres undefined) |

Other records follow:
compound	VDR inh
COC(=O)C(C)SC1=N/C(=C/c2ccc(-n3cncn3)cc2)C(=O)N1 (centres undefined)	29%
CCOc1ccc(NC(=O)Cn2cc(C(=O)c3ccccc3)c(=O)c3cc(OC)ccc32)cc1	-13%
Cc1ccc(N(C(=O)c2snc(C(N)=O)c2N)C(C(=O)NCCC(C)C)c2ccco2)cc1 (centres undefined)	-3%
O=S(=O)(c1cccc(-c2csc(-c3ccccc3)n2)c1)N1CCOCC1	6%
O=C1CC(C(F)(F)F)=NN1	28%
CC1CCN(S(=O)(=O)c2ccc(C(=O)OC(C)C(=O)NC3CCCCC3C)cc2)CC1 (centres undefined)	4%
O=C(NCCCn1ccnc1)C(=O)NCc1ccccc1	32%
CC(C)C(OC(=O)C1CCCO1)C(=O)NC1CCCC1 (centres undefined)	19%

These rows are one share of the data. The share of hits here may be higher or lower than overall.
